Assay outcomes deposited in PubChem BioAssay by several laboratories.
ALR inh = inhibitors of human ALR sulfhydryl oxidase, primary screen, biochemical, H2O2 detection, HRP-luminol luminescence, single point. purified ALR, DTT oxidation. 290,000 tested, 3.8% active. inhibition, % (no concentration beside the values). AID 485317, 2010;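 active = mean and each replicate at 75% or more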;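 note: stock transfer was 7.5 nL into about 7.5 µL; 0% = neutral wells and 100% = wells with inactivated enzyme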
Target sequence (P55789 whole entry, looked up): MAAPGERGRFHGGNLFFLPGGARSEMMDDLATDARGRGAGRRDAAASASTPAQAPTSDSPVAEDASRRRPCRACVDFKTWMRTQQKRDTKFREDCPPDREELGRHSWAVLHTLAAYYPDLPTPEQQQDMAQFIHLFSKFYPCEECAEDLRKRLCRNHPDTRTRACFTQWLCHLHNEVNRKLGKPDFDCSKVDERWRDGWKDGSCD
AF4-AF9 inh = inhibitors of AF4 peptide binding to AF9, primary screen, biochemical, AlphaScreen, biotin-AF4 peptide, FLAG-AF9, single point. Protein AF-9 (Homo sapiens), P42568. inhibition, % at 10 µM. 350,000 tested, 0.47% active. AID 651704, 2012;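 active = every replicate reaching a set inhibition limit, whatever the replicate mean, cut at about 25% in these data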;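 note: 0% = plate neutral control median and 100% = total signal loss; the record names both 10 and 1 µM as test concentration; the first replicate is given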
HNF4A DNA FP = change in binding of human HNF4A to DNA, primary screen, biochemical, fluorescence polarization, FITC-DNA | Hepatocyte nuclear factor 4-alpha (Homo sapiens), P41235 | activity change, % at 10 µM | 360,000 tested, 0.3% active | 1 h; in the data active = activity change above about 30%, passing the limit was not always enough;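 note: controls were the assay level and a saturating level of protein; the project sought stronger binding though the title names inhibitors; some compounds called inactive have numbers as strong as hits; positive values seem to mean higher polarization but the record does not say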
Ecoli rRNA inh = reduced GFP signal of wild-type E. coli, primary screen, bacterial rRNA inhibitor project, GFP/RFP fluorescence, OD600, single point; E. coli WT GFP vs humanized-ribosome RFP mutants, 24 h; stronger effect = lower value; DMSO median 0, no signal -100; GFP signal change (wild-type ribosome), % (test concentration not listed); 350,000 tested, 1.6% active; AID 720706, 2013;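 active = significant combined selectivity score with lowered wild-type GFP, culture density cut under 30%, mutant RFP and density less affected; inactive = any of these conditions unmet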; note: one replicate is shown; some compounds called inactive have numbers as strong as hits
FGF22 binding = binders of human FGF22 protein, primary screen, FGF22 synaptogenesis inhibitor project, biophysical, thermal shift, single point; Fibroblast growth factor 22 (Homo sapiens), Q9HCT0; recombinant FGF22 thermal shift, SYPRO orange fluorescence; percent of sucrose octasulfate shift, DMSO zero; calls only at 9.99 µM; 340,000 tested, 1.5% active;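 active = melting point raised past a set limit in the mean and every replicate; three in four hits are not shown here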
Target sequence (Q9HCT0 whole entry, looked up): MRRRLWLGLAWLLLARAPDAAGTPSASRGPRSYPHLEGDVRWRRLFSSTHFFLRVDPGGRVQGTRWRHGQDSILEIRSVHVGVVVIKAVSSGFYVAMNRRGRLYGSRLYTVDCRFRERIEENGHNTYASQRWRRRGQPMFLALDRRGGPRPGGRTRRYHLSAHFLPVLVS
Vif TR-FRET = inhibitors of Vif binding to APOBEC3G peptide, primary screen, biochemical, TR-FRET, GST-Vif 1-94, biotin-A3G peptide, dose response retest (AID 1117319); Virion infectivity factor (Human immunodeficiency virus type 1 group M subtype B (isolate …; TR-FRET GST-Vif / biotin-A3G peptide binding; higher % means a stronger effect; test concentration not given here; strong numbers were not always called active; inhibition, %, or IC50 in µM where a hit was titrated; 260,000 tested, 0.57% active;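 active = above the screen mean plus three standard deviations and confirmed in dose response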;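 note: Vif residues 1-94 fused to GST binding biotinylated APOBEC3G peptide 110-148; 0% = full assay without inhibitor and 100% = GST in place of GST-Vif; retest series ran down from 100 µM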
Ecoli growth = E. coli growth inhibition, primary screen, OD600. Escherichia coli growth, 23 h; stronger effect = lower value. 330,000 tested, 0.21% active. OD600 absorbance (no concentration beside the values). AID 1053175, 2014;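 active = OD600 absorbance below the run mean of sample wells minus 3.6 SD, in any replicate, cut at about 0.56 in these data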;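 note: stock transfer was 300 nL into about 60 µL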
Ecoli rRNA inh OD600 = second read-out of Ecoli rRNA inh, no call of its own (marks repeat the call); OD600 change, %; measured here: OD600 growth;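 optical density of the mix in the first replicate; 0 = DMSO median and -100 = no signal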
Ecoli rRNA inh RFP = second read-out of Ecoli rRNA inh, no call of its own (marks repeat the call); RFP signal change, %; measured here: RFP humanized mutant strains;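 first replicate; 0 = DMSO median and -100 = no signal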
* hit, by the source's call; i = inactive; . = not tested or not shown; & = joins results of further samples. A portion of the library; the hit share may differ from the screen's.

Keys: A = ALR inh; B = AF4-AF9 inh; C = HNF4A DNA FP; D = Ecoli rRNA inh; E = Ecoli rRNA inh OD600; F = Ecoli rRNA inh RFP; G = FGF22 binding; H = Vif TR-FRET; I = Ecoli growth
canonical_smiles: Cc1ccc(C)c(N(CC(=O)NCCc2ccccc2)C(=O)CCC(=O)Nc2ccccn2)c1
  A = .; B = -3.1; C = 1.0; D = 0; E = -14; F = 3.1; G = i; H = .; I = 0.7
canonical_smiles: CCCNC(=O)[C@H]1[C@H](CO)[C@H]2Cn3c(ccc(-c4ccc(F)cc4)c3=O)[C@H]2N1C
  A = .; B = 1.5; C = .; D = -2; E = -1; F = 1.4; G = i; H = .; I = .
canonical_smiles: CN(C)S(=O)(=O)c1cc(NC(=O)[C@H](Cc2ccccc2)N2C(=O)c3ccccc3C2=O)ccc1Cl
  A = -21; B = .; C = -0.9; D = .; E = .; F = .; G = .; H = 16%; I = .
canonical_smiles: COC(=O)C[C@@H]1CC[C@@H]2[C@@H](COc3ccc(NC(=O)Nc4cccc(Cl)c4)cc3C(=O)N2C)O1
  A = .; B = -0.2; C = .; D = -9; E = -44; F = 8.9; G = i; H = .; I = .
canonical_smiles: COc1cc(NC(=O)Cn2c([N+](=O)[O-])cnc2C)c(OC)cc1Cl
  A = .; B = -3.9; C = 4.1; D = 17; E = 11; F = 8.4; G = i; H = .; I = 0.66
canonical_smiles: COc1ccc(CNC(=O)CN(Cc2ccc(OC)cc2)C(=O)c2csnn2)cc1
  A = -2; B = -0.4; C = -0.1; D = 11; E = 8; F = 2.0; G = i; H = -10%; I = 0.66
canonical_smiles: O=C1CC(N2CCN(c3ccccc3)CC2)C(=O)N1c1cccc(Cl)c1 (centres undefined)
  A = 46; B = 2.4; C = -1.3; D = -3; E = 11; F = 0.7; G = i; H = -6%; I = 0.68
canonical_smiles: C=CCOc1ccc(/C=C/C(=O)OCC(=O)NCC2CCCCC2)cc1
  A = -3; B = -0.9; C = 1.8; D = 3; E = 16; F = -0.8; G = i; H = -5%; I = 0.7
canonical_smiles: COc1ccc2c3c(n(C)c2c1)[C@@H](CO)N(CC1CC1)CC31CN(C(=O)CC2CC2)C1
  A = .; B = -1.1; C = .; D = -1; E = -4; F = -2.2; G = i; H = .; I = .
canonical_smiles: Cc1ccc(NC(=O)C(=O)NNC(=O)c2ccccc2C)cc1Cl
  A = .; B = .; C = 0.0; D = .; E = .; F = .; G = .; H = 31%; I = 0.67
canonical_smiles: CNC(=O)Nc1ccc2nc(C)sc2c1
  A = -14; B = -2.0; C = 1.8; D = 10; E = 9; F = -0.3; G = i; H = -1%; I = 0.67
canonical_smiles: Cc1cc(-n2c(C)cc(C(=O)CN3C(=O)NC4(CCCC4)C3=O)c2C)no1
  A = .; B = .; C = 4.9; D = .; E = .; F = .; G = .; H = 6%; I = 0.68
canonical_smiles: NC(=O)NC(=O)COC(=O)CCCSc1nc2ccccc2s1
  A = -4; B = -5.5; C = 0.3; D = 7; E = 0; F = -2.2; G = i; H = -15%; I = 0.67
canonical_smiles: COC(=O)[C@H](C)NC(=O)NCc1ccccc1F
  A = -12; B = .; C = -0.3; D = .; E = .; F = .; G = .; H = -2%; I = 0.76
canonical_smiles: NS(=O)(=O)c1ccc(CCNC(=O)c2cncc(Br)c2)cc1
  A = -7; B = .; C = 1.2; D = .; E = .; F = .; G = .; H = -1%; I = 0.74

Brought forward from above: 7 compounds, followed by the next part.
Results follow in this order: ALR inh, AF4-AF9 inh, HNF4A DNA FP, Ecoli rRNA inh, Ecoli rRNA inh OD600, Ecoli rRNA inh RFP, FGF22 binding, Vif TR-FRET, Ecoli growth
> COc1ccc2c3c(n(C)c2c1)[C@@H](CO)N(CC1CC1)CC31CN(C(=O)CC2CC2)C1
  ., -1.1, ., -1, -4, -2.2, i, ., .
> Cc1ccc(NC(=O)C(=O)NNC(=O)c2ccccc2C)cc1Cl
  ., ., 0.0, ., ., ., ., 31%, 0.67
> CNC(=O)Nc1ccc2nc(C)sc2c1
  -14, -2.0, 1.8, 10, 9, -0.3, i, -1%, 0.67
> Cc1cc(-n2c(C)cc(C(=O)CN3C(=O)NC4(CCCC4)C3=O)c2C)no1
  ., ., 4.9, ., ., ., ., 6%, 0.68
> NC(=O)NC(=O)COC(=O)CCCSc1nc2ccccc2s1
  -4, -5.5, 0.3, 7, 0, -2.2, i, -15%, 0.67
> COC(=O)[C@H](C)NC(=O)NCc1ccccc1F
  -12, ., -0.3, ., ., ., ., -2%, 0.76
> NS(=O)(=O)c1ccc(CCNC(=O)c2cncc(Br)c2)cc1
  -7, ., 1.2, ., ., ., ., -1%, 0.74
> N#Cc1nc(N)nc(N(c2ccccc2)c2ccccc2)n1
  15, ., 2.1, ., ., ., ., 2%, 0.69
> CN=C(NC#N)SCC(=O)c1ccc(Cl)cc1Cl
  11, ., 3.6, ., ., ., ., 3%, 0.65
> O=c1ccn([C@@H]2O[C@H](CNS(=O)(=O)C3CC3)[C@@H](O)[C@H]2O)c(=O)[nH]1
  ., -4.5, -0.9, 1, 5, -2.0, i, ., .
> Cc1cnc(NS(=O)(=O)c2ccc(Cl)cc2)c(Br)c1
  2, -4.7, -0.5, -6, -16, 0.3, i, ., 0.64
> C[C@@H](O)C#Cc1cnc2c(c1)C(=O)N([C@@H](C)CO)C[C@H](C)[C@@H](CN(C)C(=O)c1ccccc1F)O2
  ., -1.0, ., -2, 0, 0.1, i, ., .
> CNc1c(NS(=O)(=O)c2ccc(Cl)cc2)c(=O)oc2ccccc12
  6, -2.0, 1.0, 4, 7, 0.3, i, ., 0.7
> Nc1ncnc2c1ncn2CCNCCc1ccccc1
  -2, ., -11, ., ., ., ., 2%, 0.65
> CCS(=O)(=O)NCCc1cc2c(OC)ccc(OC)c2[nH]c1=O
  ., ., 0.2, ., ., ., ., 21%, 0.79
> C[C@@H]1CN([C@@H](C)CO)C(=O)c2cccc(NS(C)(=O)=O)c2O[C@@H]1CN(C)Cc1ccccc1
  ., 0.7, ., 4, 8, -0.3, i, ., .
> CCOC(=O)C1(C)/C(=N/Nc2ccccc2)C(=O)C(=O)N1c1ccccc1 (centres undefined)
  66, ., -1.6, ., ., ., ., 17%, 0.71
> COc1ccc(C(C)(O)c2nc(-c3ccc(C)c(C)c3)cs2)cc1 (centres undefined)
  ., 0.5, -8.3, -26, -43, 0.4, i, ., .
> Cc1nn(CCCC(=O)Nc2c(F)cc(F)cc2Br)c(C)c1[N+](=O)[O-]
  ., -9.9, -4.8, 11, 14, -2.3, i, 10%, 0.68
> Cc1ccc(S(=O)(=O)N2CCC(C(=O)OCC(=O)N3C(C)CCCC3C)CC2)cc1C (centres undefined)
  ., -5.2, -1.4, -10, -19, 0.3, i, -2%, .
> Cc1nc(NC(C)C)c2cnn(CCc3ccccc3)c2n1
  6, ., 0.5, ., ., ., ., -1%, 0.64
> Cc1ccc(Cl)cc1NC(=O)CN1CCN(C(=O)C2CCCO2)CC1 (centres undefined)
  -3, -1.3, -1.0, 4, 13, 3.9, i, ., 0.7
> CC(C)(C)NC(=O)c1ccc2c(c1)N(CC(=O)N1CCN(c3ccc(F)cc3)CC1)C(=O)C(C)(C)O2
  -17, ., 3.8, ., ., ., ., 0%&3%, 0.7
> CC(=O)C1=C(C)NC(SCC(N)=O)=C(C#N)C1CC(C)C (centres undefined)
  -10, -8.5, -1.7, 6, 1, -1.0, i, -14%, 0.66
> COc1ccccc1CN1CC(C(=O)NC2(c3ccccc3)CC2)CCC1=O (centres undefined)
  -6, 0.2, -0.9, 7, 3, 0.6, i, ., 0.64
> CCC(=O)Nc1ccc2oc(-c3cccc(C)c3)nc2c1
  -5, ., 5.7, ., ., ., ., 6%, 0.73

Results in Ecoli growth and FGF22 binding, for two of the compounds above:
mol | Ecoli growth | FGF22 binding
Cc1nc(NC(C)C)c2cnn(CCc3ccccc3)c2n1 | 0.64 | .
CN=C(NC#N)SCC(=O)c1ccc(Cl)cc1Cl | 0.65 | .
